Screening data: PubChem, National Center for Advancing Translational Sciences (NCATS)
miR-21 FLuc = miR-21 reporter, rising signal; HeLa miR-21 FLuc reporter, luciferase, 48 h; Potency, µM (doses to about 38.3 µM), for the others: at the top dose reporter change, positive = more light; 340,000 tested, under 10 active; AID 2288; active = well fitted rising curve with a large enough effect; inconclusive = small, poorly fitted or top-dose-only effect; inactive = no such curve, though single readings can be large or run the other way;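 note: % of control where 0% means no effect; miR-21 action dims this reporter so a rising signal means less miR-21 action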
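Luminescence from a firefly luciferase reporter carrying a miR-21 binding site downstream, stably expressed under a CMV promoter in HeLa cells that make miR-21 endogenously, reports miRNA modulation after 48 h compound exposure up to approximately 40uM final.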
Rango-impB inh = Rango-importin beta binding inhibition; Q14974; Rango CFP/YFP FRET sensor + importin beta, 45 min; Potency, µM (highest dose often 92.2 µM), inactives show at the highest dose inhibition of complex formation; 340,000 tested, 0.031% active; active = rising FRET ratio curve, often small or poorly fitted; inconclusive = mostly compound fluorescence or quenching in the first reads; inactive = flat curves in all reads;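 note: potency is the fitted concentration of half-maximal effect; 0% = DMSO wells and 100% = buffer wells lacking importin beta; nearly all actives have a fitted effect of over 15% in size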
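Inhibition scored from the CFP 486 nm/YFP 530 nm FRET ratio 45 min after adding 0.125 microM importin beta to 50 nM Rango biosensor preincubated 5 min with compound (room temperature, PBS with DTT, Tween-20, BSA). No-importin wells as positive control.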
GLA inh pH 4.5 = blocks human alpha-galactosidase A at pH 4.5; P06280; purified enzyme, 4-MU-alpha-Gal fluorescence, pH 4.5; activity change, negative = inhibition, % at 105 µM; 230,000 tested, under 10 active; AID 1467; inconclusive = small, poorly fitted or top-dose-only inhibition, or a rising curve; inactive = flat fitted curve, though single readings scatter; no compound was filed as active;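 note: 0% = full activity with enzyme and -100% = basal without enzyme; dose as in the result columns while the protocol names 77 µM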
Target sequence (P06280 whole entry, looked up): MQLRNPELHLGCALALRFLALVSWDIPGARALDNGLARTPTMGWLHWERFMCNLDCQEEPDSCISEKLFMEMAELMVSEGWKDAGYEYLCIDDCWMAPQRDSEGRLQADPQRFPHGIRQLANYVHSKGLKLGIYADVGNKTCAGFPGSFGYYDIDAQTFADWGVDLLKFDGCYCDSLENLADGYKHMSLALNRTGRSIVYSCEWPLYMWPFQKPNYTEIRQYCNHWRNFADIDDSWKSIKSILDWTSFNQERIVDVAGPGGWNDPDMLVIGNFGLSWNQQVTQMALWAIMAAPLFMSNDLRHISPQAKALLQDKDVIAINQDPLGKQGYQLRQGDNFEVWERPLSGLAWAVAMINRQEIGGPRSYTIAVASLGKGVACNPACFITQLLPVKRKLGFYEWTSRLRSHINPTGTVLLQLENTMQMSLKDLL
Rango dissoc inh = prevents RanGTP from dissociating the Rango-importin beta complex; Potency, µM (highest dose often 46.1 µM), inactives show at the highest dose activity change, negative = inhibition; 340,000 tested, 0.071% active; Biochemical FRET Rango-importin beta, RanGTP-induced dissociation; O95149+P62826; active means falling FRET ratio curve, often poorly fitted, with flat reads before Ran was added; inconclusive means other falling curves, or compound fluorescence or quenching; inactive means flat or rising ratio curve;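 note: potency is the fitted concentration of half-maximal effect; % of control where 0% means no effect; nearly all actives have a fitted effect of over 45% in size; -100% = wells without RanGTP and RCC1; the record marks most hits as doubtful in a second field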
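Rango FRET biosensor (snurportin-1 IBB flanked by N-terminal EYFP and C-terminal CFP10) at 0.1 uM, with 0.25 uM importin beta in PBS, 1mM DTT, 0.02% Tween-20, 0.1% BSA. 0.6 uM Ran, 2mM GTP and 0.2 uM RCC1 were then added for 45 min at room temperature. Inhibition read as loss of FRET rise.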
Numbers without * were called inactive; [ ] = remark or other dose.

O=C(CN1C(=O)c2ccccc2C1=O)Nc1ccccc1C(=O)N1CCCC1 was read as miR-21 FLuc -6%, Rango-impB inh 4.2%, GLA inh pH 4.5 12 and Rango dissoc inh -2%.
Screening Cc1ccc(S(=O)(=O)Nc2ccccc2F)cc1C(=O)N1CCCC1 returned Rango-impB inh -0.8% and Rango dissoc inh -2%.
`Cc1cccc(C(=O)NCCCNC(=O)c2cccc(C)c2)c1` gave miR-21 FLuc -6%, Rango-impB inh 0.4% and Rango dissoc inh 2%.
`Cc1c(C(=O)O)oc2ccc(S(=O)(=O)NCc3ccc4c(c3)OCO4)cc12` gave miR-21 FLuc -4%, Rango-impB inh -1.2%, GLA inh pH 4.5 4 and Rango dissoc inh 13%.
Screening COc1cc(CNc2ccc3[nH]c(=O)[nH]c3c2)cc(Br)c1OCC(=O)NC(C)(C)C returned miR-21 FLuc 18%, Rango-impB inh 1.0%, GLA inh pH 4.5 -3 and Rango dissoc inh 19%.
COc1ccc(OCC(=O)Nc2c(Cl)ccc3nsnc23)cc1 was read as miR-21 FLuc 0%, Rango-impB inh 0.0% and Rango dissoc inh 11%.
Screening O=C(c1cccs1)n1nc(-c2ccccc2)nc1NCc1ccco1 returned miR-21 FLuc -3%, Rango-impB inh 2.9%, GLA inh pH 4.5 -7 and Rango dissoc inh 4%.
`CCC(=O)Nc1cccc(-c2ccc(N3CCC(C)CC3)nn2)c1` gave miR-21 FLuc -30%, Rango-impB inh 3.7% and Rango dissoc inh -1%.
For Cc1nn(C)cc1CNCc1c(C(=O)N2CCCCC2)nc2c(C)cccn12 the results were miR-21 FLuc -3%, Rango-impB inh -0.9%, GLA inh pH 4.5 8 and Rango dissoc inh -5%.
O=C(CN1CCN(S(=O)(=O)c2ccc(Cl)cc2)CC1)Nc1ccc2c(c1)OCCO2 was read as miR-21 FLuc -2%, Rango-impB inh -0.1%, GLA inh pH 4.5 -3 and Rango dissoc inh -12%.
`Cc1ccc(NC(=O)c2cnccn2)c(Br)c1` gave miR-21 FLuc -61%, Rango-impB inh 4.1% and Rango dissoc inh 0%.
Screening CN(CC(=O)Nc1cccc(F)c1)C(=O)CSc1nc2ccccc2s1 returned Rango-impB inh 0.0% and Rango dissoc inh 2%.
`Cc1ccc2c(c1)C1CN(C)CCC1N2S(=O)(=O)c1cc(C(F)(F)F)ccc1Cl` (configuration not stated) gave Rango-impB inh 0.7% and Rango dissoc inh -16%.
For O=C(NC(O)C(=O)c1ccccc1)c1ccccn1 (configuration not stated) the results were miR-21 FLuc 0%, Rango-impB inh -0.9% and Rango dissoc inh 2%.
Screening O=C(NCC(=O)N1CCN(c2ccccc2O)CC1)c1ccc2c(c1)OCO2 returned miR-21 FLuc -10%, Rango-impB inh -6.7% and Rango dissoc inh 2%.
Screening CN(CC(=O)Nc1cccc(F)c1)C(=O)/C=C/c1ccc(S(=O)(=O)N2CCCCCC2)cc1 returned Rango-impB inh 0.3% and Rango dissoc inh 7%.
Screening Cc1nnc(NC(=O)CS(=O)(=O)Cc2ccccc2)s1 returned miR-21 FLuc 1%, Rango-impB inh 0.3% and Rango dissoc inh 1%.
CC(=O)C1=C(O)C(=O)N(CCCCCC(=O)O)C1c1ccc(N(C)C)cc1 (configuration not stated) was read as miR-21 FLuc -2%, Rango-impB inh 0.5%, GLA inh pH 4.5 8 and Rango dissoc inh -1%.
For CCN(CC)C(=O)C(=O)N/N=C/c1ccc(Br)cc1 the results were miR-21 FLuc 0%, Rango-impB inh -0.4%, GLA inh pH 4.5 -1 and Rango dissoc inh 2%.
Screening CCOc1ccc(S(=O)(=O)N(C)c2ccc(OCC(=O)NCC3CCCCC3)cc2)cc1 returned Rango-impB inh -0.5% and Rango dissoc inh -2%.
COCCn1cc(C(=O)NCCN(C)C)c2c3ccccc3n(C)c2c1=O was read as miR-21 FLuc -2%, Rango-impB inh 0.4% and Rango dissoc inh -9%.
CCN(CC)c1ccc(/C=N/Nc2ccccc2)c(O)c1 was read as miR-21 FLuc -25%, Rango-impB inh inconclusive, GLA inh pH 4.5 -10 and Rango dissoc inh -29%.
`CCOC(=O)N1CCN(c2c(N3CCN(c4cccc(C)c4C)CC3)c(=O)c2=O)CC1` gave miR-21 FLuc -4%, Rango-impB inh -2.6%, GLA inh pH 4.5 -3 and Rango dissoc inh -3%.
`CC(C)c1[nH]nc2c1C(C1C=CCCC1)C(C#N)=C(N)O2` (configuration not stated) gave miR-21 FLuc 13%, Rango-impB inh -0.5%, GLA inh pH 4.5 -5 and Rango dissoc inh -7%.
For OC(CNCc1ccccc1Cl)COc1ccc(F)cc1 (configuration not stated) the results were miR-21 FLuc -7%, Rango-impB inh 4.3% and Rango dissoc inh -8%.
O=c1[nH]nc(Cc2ccc(-c3ccc(Cl)cc3)o2)c2ccccc12 was read as miR-21 FLuc -1%, Rango-impB inh 2.6%, GLA inh pH 4.5 -1 and Rango dissoc inh 18%.
`Cc1c(NC(=O)Cc2noc3ccccc23)cccc1[N+](=O)[O-]` gave miR-21 FLuc 2%, Rango-impB inh -2.8%, GLA inh pH 4.5 -4[21.1 µM] and Rango dissoc inh 6%.
For C/C(=N\NC(=O)c1nnn(-c2nonc2N)c1-c1ccccc1)c1cccnc1 the results were miR-21 FLuc -3%, Rango-impB inh -0.2% and Rango dissoc inh 1%.
CN(c1ccccc1)S(=O)(=O)c1ccc(Cl)nc1 was read as miR-21 FLuc -1%, Rango-impB inh 3.2%, GLA inh pH 4.5 5 and Rango dissoc inh -20%.
Screening Cc1cc(OCC(=O)NCc2ccncc2)c2c(C)c(C)c(=O)oc2c1 returned miR-21 FLuc 2%, Rango-impB inh 0.2% and Rango dissoc inh 5%.
Screening CC(OC(=O)CCNS(=O)(=O)c1cccs1)C(=O)Nc1ccc(S(N)(=O)=O)cc1 (configuration not stated) returned Rango-impB inh -2.0% and Rango dissoc inh -2%.
Screening CCCCN(C)CCN1C(=O)C2C(C(=O)Nc3ccc(C)cc3)C3C=CC2(O3)C1C(=O)NC1CCCCC1 (configuration not stated) returned miR-21 FLuc 1%, Rango-impB inh 8.5% and Rango dissoc inh 22%.
For Cc1ccc(-c2nnc(SCC(=O)Nc3ccccc3F)o2)cc1 the results were miR-21 FLuc inconclusive, Rango-impB inh -5.0%, GLA inh pH 4.5 4 and Rango dissoc inh -16%.
CCc1nnc(NC(=O)C(=O)NCCOC(=O)c2ccccc2Cl)s1 was read as miR-21 FLuc -2%, Rango-impB inh -2.9%, GLA inh pH 4.5 -3 and Rango dissoc inh 3%.
CC(=O)c1cccc(OCC(=O)N2CCCc3ccccc32)c1 was read as miR-21 FLuc -19%, Rango-impB inh -1.0% and Rango dissoc inh 31%.
`CCn1c(=O)cc(SCC(=O)N2CCN(C(=O)c3ccco3)CC2)c2ccccc21` gave miR-21 FLuc -10%, Rango-impB inh -0.5%, GLA inh pH 4.5 -1 and Rango dissoc inh 2%.

Next part (2 carried over from the part before).
CC(=O)c1cccc(OCC(=O)N2CCCc3ccccc32)c1 was read as miR-21 FLuc -19%, Rango-impB inh -1.0% and Rango dissoc inh 31%.
`CCn1c(=O)cc(SCC(=O)N2CCN(C(=O)c3ccco3)CC2)c2ccccc21` gave miR-21 FLuc -10%, Rango-impB inh -0.5%, GLA inh pH 4.5 -1 and Rango dissoc inh 2%.
CCN(CC)C(=O)CSc1ncnc2c(-c3ccc(OC)cc3)nsc12 was read as miR-21 FLuc -3% and GLA inh pH 4.5 1.
Screening O=C(O)CCN1C(=O)c2ccc(NC(=O)CCc3ccccc3)cc2C1=O returned miR-21 FLuc 0%, Rango-impB inh -0.2% and Rango dissoc inh -24%.
`Cc1cc(C)c(NC(=O)CSCc2c(C)noc2C)c(Cl)c1` gave Rango-impB inh -0.2% and Rango dissoc inh inconclusive.
`CC(NC(=O)c1cccc(S(=O)(=O)N2CCN(Cc3ccccc3)CC2)c1)c1ccc(Br)cc1` (configuration not stated) gave miR-21 FLuc 9%, Rango-impB inh 0.1% and Rango dissoc inh 1%.
For CC(=O)Nc1nc(C)c(Cc2ccccc2)c(=O)[nH]1 the results were miR-21 FLuc 0%, Rango-impB inh 0.1%, GLA inh pH 4.5 6 and Rango dissoc inh 1%.
For Cc1noc(C)c1C(=O)Nc1nc(-c2cccs2)cs1 the results were Rango-impB inh 3.6% and Rango dissoc inh 15%.
For CCCCCn1c(S(=O)(=O)O)nc2ccccc21 the results were miR-21 FLuc -8%, Rango-impB inh 1.7%, GLA inh pH 4.5 2 and Rango dissoc inh 13%.
Cc1cc(C)nc(SCC(=O)N(C)CC(=O)Nc2c(Cl)cccc2Cl)n1 was read as Rango-impB inh 0.0% and Rango dissoc inh -1%.
`N/C(=N\OC(=O)C1CCCCC1)c1ccc(Cl)cc1` gave miR-21 FLuc -14%, Rango-impB inh -4.2% and Rango dissoc inh -4%.
For Cc1ccc(C)c(NC(=O)C(C)CC2COCCO2)c1 (configuration not stated) the results were miR-21 FLuc 1%, Rango-impB inh 3.6%, GLA inh pH 4.5 -2 and Rango dissoc inh 1%.
Screening CC(=O)Nc1ccc(SC[C@H](Cc2ccccc2)N2CCN(CCc3ccccc3)CCC2=O)cc1 returned miR-21 FLuc 21%, Rango-impB inh -1.5%, GLA inh pH 4.5 -1 and Rango dissoc inh -21%.
O=C1N[C@@H](Cc2ccccc2)C(=O)N2[C@H]3Nc4ccccc4[C@@]3([C@]34C[C@H]5C(=O)N[C@@H](Cc6ccccc6)C(=O)N5[C@H]3Nc3ccccc34)C[C@@H]12 was read as Rango-impB inh -1.3% and Rango dissoc inh -6%.
`OC(CN1CCN(Cc2ccccc2)CC1)Cn1c2ccccc2c2ccccc21` (configuration not stated) gave miR-21 FLuc -1%, Rango-impB inh 5.5%, GLA inh pH 4.5 -5 and Rango dissoc inh -9%.
`CCC(CC)C(=O)NCc1ccccc1Cl` gave miR-21 FLuc 0%, Rango-impB inh -0.2%, GLA inh pH 4.5 1 and Rango dissoc inh 29%.
Screening COc1ccc(-n2nc(C(=O)NCC(=O)Nc3ccccn3)c3ccccc3c2=O)cc1 returned miR-21 FLuc 0%, Rango-impB inh 0.0%, GLA inh pH 4.5 8 and Rango dissoc inh 9%.
For O=C(OCC(=O)N1CCCc2ccccc21)c1cnc(Cl)c(Cl)c1 the results were miR-21 FLuc -5%, Rango-impB inh -1.1%, GLA inh pH 4.5 5 and Rango dissoc inh 4%.
`CCCc1ccc(OCc2ccc(C(=O)N3CCCC3)o2)cc1` gave miR-21 FLuc -16%, Rango-impB inh -3.7% and Rango dissoc inh -14%.
For O=C(c1ccco1)N1CCN(C(=S)Nc2ccc(F)cc2)CC1 the results were miR-21 FLuc 4%, Rango-impB inh 6.9% and Rango dissoc inh -14%.
CN(C)c1ccc(/C=N/NC(=O)c2cccc(N3CCCC3=O)c2)cc1 was read as miR-21 FLuc 6%, Rango-impB inh 2.9%, GLA inh pH 4.5 4 and Rango dissoc inh inconclusive.
`CCCCn1c(CCc2ccccc2)nc2cc3[nH]c(=O)c(C(C)C)nc3cc21` gave miR-21 FLuc 6%, Rango-impB inh inconclusive and Rango dissoc inh -27%.
Screening Cc1c(Cl)cccc1NS(=O)(=O)c1ccc2c(c1)C1C=CCC1C(c1ccc(C(=O)O)cc1)N2 (configuration not stated) returned miR-21 FLuc 0%, Rango-impB inh 1.3%, GLA inh pH 4.5 0 and Rango dissoc inh -6%.
Screening COc1ccc(NC(=O)CSc2nc3ccccc3nc2N2CCCC2)c(OC)c1 returned miR-21 FLuc 2%, Rango-impB inh 0.3% and Rango dissoc inh 16%.
Screening COc1ccc(C(NC(=O)c2ccc(-c3ccccc3)cc2)c2ccccc2)cc1 (configuration not stated) returned miR-21 FLuc -13%, Rango-impB inh 0.3%, GLA inh pH 4.5 11 and Rango dissoc inh -7%.
Screening CCOc1ccc(NC(=O)c2cc(Cl)nc3ccccc23)cc1 returned miR-21 FLuc 2%, Rango-impB inh -1.0%, GLA inh pH 4.5 -1 and Rango dissoc inh 23%.
For CCOc1ccccc1NC(=O)N1CCCc2ccccc21 the results were miR-21 FLuc -9%, Rango-impB inh 0.3% and Rango dissoc inh 2%.
C=CCNCCCCOc1ccc(OCc2ccccc2)cc1 was read as miR-21 FLuc -71%, Rango-impB inh -3.3%, GLA inh pH 4.5 -15 and Rango dissoc inh -6%.

These rows are one share of the data; count on the stated rates, not on these rows.
